Source: PubChem BioAssay (National Center for Advancing Translational Sciences (NCATS))
TRPML1 inh = qHTS for Inhibitors of the Human Mucolipin Transient Receptor Potential 1 (TRPML1). AID 624415, 2012. 390,000 compounds, 0.02% hits. Mucolipin-1 (Homo sapiens), Q9GZU1. TRPML1-inducible cells, Ca2+ dye fluorescence, FDSS; active compounds read low; inhibition of EC80 agonist-evoked calcium signal. activity change, negative = inhibition, % (concentration not given with the values); in the data active means activity change below about -50%; inconclusive means about -30% to -50%; inactive means above about -30%;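 further: stimulus is agonist 54-4 at its EC80 concentration; on the % scale 0 is the no-effect control and ±100 the full control effect; the text of the record puts the active cut at -80%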
Target sequence (Q9GZU1 whole entry, looked up): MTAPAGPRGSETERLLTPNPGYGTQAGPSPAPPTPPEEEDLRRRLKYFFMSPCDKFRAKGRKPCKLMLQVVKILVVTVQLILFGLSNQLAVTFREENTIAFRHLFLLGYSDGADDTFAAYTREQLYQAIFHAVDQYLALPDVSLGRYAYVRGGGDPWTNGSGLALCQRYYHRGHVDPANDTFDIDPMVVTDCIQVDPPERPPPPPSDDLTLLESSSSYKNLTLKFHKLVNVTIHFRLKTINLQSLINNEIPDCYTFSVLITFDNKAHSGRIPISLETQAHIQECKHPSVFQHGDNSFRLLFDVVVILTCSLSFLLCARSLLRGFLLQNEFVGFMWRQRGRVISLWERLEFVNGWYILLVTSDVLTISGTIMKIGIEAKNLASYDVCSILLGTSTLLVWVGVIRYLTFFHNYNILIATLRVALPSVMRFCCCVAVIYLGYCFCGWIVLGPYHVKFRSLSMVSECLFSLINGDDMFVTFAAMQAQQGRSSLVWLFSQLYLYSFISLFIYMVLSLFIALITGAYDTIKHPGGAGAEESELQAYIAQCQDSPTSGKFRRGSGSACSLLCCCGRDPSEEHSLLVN
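TRPML1-DL cells, Tet-induced overnight (~16 h, 37 °C) at 1,500 cells/well, were loaded with Ca8 no-wash dye plus quencher for 45-90 min at room temperature. Compounds were pinned during FDSS kinetic reading; agonist 54-4 at EC80 (4 uM final) then added.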
TRPML1 agonist = qHTS for Agonists of the Human Mucolipin Transient Receptor Potential 1 (TRPML1); TRPML1-expressing cells, Ca2+ dye fluorescence, FDSS; host cell line not named in the record; reference of the full effect not given here; activation, % (concentration not given with the values); 410,000 compounds, 0.12% hits; in the data active = activation above about 50%; inconclusive = about 30% to 50%; inactive = below about 30%; further: 0% is about no effect; the text of the record puts the active cut at 80%
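Cells: TRPML1-DL, 1X Tet inducer, ~16 h at 37 degrees C/5% CO2. Dye: ABD Ca8 no-wash + quencher, 45-90 min RT. Read: 10 s baseline, compound add, 110 s agonist phase; 54-4 EC80 (4uM final), 110 s antagonist phase.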
Active calls of the source: *; ? = inconclusive.

SMILES	TRPML1 inh	TRPML1 agonist
COCCCNC(=O)c1sc2nc(C)c(C(=O)Nc3ccc(C)cc3C)c(-c3ccc(Br)cc3)c2c1N	20	-1.0
COc1ccc(NC(=O)N2CCN(Cc3nc4ccc(C)cc4o3)CC2)cc1OC	-8	1.4
Cc1ccc(C)c(Cn2c(=O)n(Cc3ccc(C(=O)NC4CCN(Cc5ccccc5)CC4)cc3)c(=O)c3ccccc32)c1	20	1.1
CCOc1ccc(S(=O)(=O)N(CC(=O)NCc2ccccc2OC)c2ccccc2)cc1	2	1.8
CCCSc1nnc2c(n1)OC(c1cccs1)Nc1ccc(Br)cc1-2 (stereo not given)	-17	0.3
Cc1ccc(C)c(Nc2nc(-c3ccccc3)c3cc(Br)ccc3n2)c1	-10	1.8
Cc1cc(Br)cc2c(C(=O)OCC(=O)c3ccccc3)cc(-c3ccccc3)nc12	-3	-0.2
CCOc1ccc(NC(=O)C(=O)c2cc(C)n(-c3cc(C)cc(C)c3)c2C)cc1	10	-0.5
Cc1ccc(Nc2c(-c3ccc(O)cc3)nc3cccc(C)n23)cc1	-1	1.5
Cc1ccc(-n2ccnc(NCCc3ccc(S(N)(=O)=O)cc3)c2=O)cc1C	-6	2.5
Cc1c(Cl)cccc1NC(=O)CSc1nc(=O)n(Cc2cccnc2)c2c1CCC2	12	0.0
CCN1CCC(N(Cc2ccc(F)cc2)C(=O)Nc2ccc(C)c(F)c2)CC1	-10	0.7
CC(=O)c1ccc(-c2c(C3C4C=CCC(C)C4C(=O)N3Cc3ccccc3)ccc3ccccc23)cc1 (stereo not given)	63	0.8
Cc1ccc(C(=O)N(Cc2ccco2)Cc2ccco2)cc1	0	6.0
CCC(CC)C(=O)Nc1ccc2nc(SCc3ccccc3)sc2c1	16	0.7
COc1ccc(Cl)cc1NC(=O)c1cc2nc(-c3ccc4c(c3)OCO4)cc(C(F)(F)F)n2n1	0	-1.0
CCOc1ccc(-c2nnc(SCC(=O)c3ccc(F)cc3)n2-c2ccccc2)cc1	-29	1.1
COC(=O)c1ccc(NS(=O)(=O)c2ccc3[nH]c4c(c3c2)CCCCC4)cc1	6	2.9
COc1ccc(Cn2c(SCC(=O)NCc3ccccc3)nc3ccccc32)cc1	18	3.8
CN(Cc1ccccc1)C(=O)Cn1ncc2c3ccccc3n(Cc3cccc(Cl)c3)c2c1=O	27	-0.4
O=C(CSc1nnc(-c2ccccc2)o1)c1cccc([N+](=O)[O-])c1	3	-0.8
Cc1ccc(-c2nc(-c3cc4cccc(OCc5ccccc5F)c4oc3=O)no2)cc1	16	-0.6
CCOc1ccc(N2CC(NC(=O)/C=C\c3ccc4c(c3)OCO4)CC2=O)cc1 (stereo not given)	8	1.0
COc1cc2c(cc1NC(=O)c1ccccc1C)n(C)c(=O)n2C	-15	-0.9
Cc1ccccc1NS(=O)(=O)c1ccc2[nH]cc(C(=O)NC(C)c3ccccc3)c(=O)c2c1 (stereo not given)	1	2.3

Among those listed so far, these have an aryl thioether with sulfur outside any ring:
SMILES	TRPML1 inh	TRPML1 agonist
CCCSc1nnc2c(n1)OC(c1cccs1)Nc1ccc(Br)cc1-2 (stereo not given)	-17	0.3
Cc1c(Cl)cccc1NC(=O)CSc1nc(=O)n(Cc2cccnc2)c2c1CCC2	12	0.0
CCC(CC)C(=O)Nc1ccc2nc(SCc3ccccc3)sc2c1	16	0.7
CCOc1ccc(-c2nnc(SCC(=O)c3ccc(F)cc3)n2-c2ccccc2)cc1	-29	1.1
COc1ccc(Cn2c(SCC(=O)NCc3ccccc3)nc3ccccc32)cc1	18	3.8
O=C(CSc1nnc(-c2ccccc2)o1)c1cccc([N+](=O)[O-])c1	3	-0.8

3 structures from above, ordered by count of non-hydrogen atoms, high to low:
SMILES	TRPML1 inh	TRPML1 agonist
COc1ccc(Cn2c(SCC(=O)NCc3ccccc3)nc3ccccc32)cc1	18	3.8
CCN1CCC(N(Cc2ccc(F)cc2)C(=O)Nc2ccc(C)c(F)c2)CC1	-10	0.7
COc1cc2c(cc1NC(=O)c1ccccc1C)n(C)c(=O)n2C	-15	-0.9

One compound at a time (already shown). Order of screens: TRPML1 inh, TRPML1 agonist
CCOc1ccc(N2CC(NC(=O)/C=C\c3ccc4c(c3)OCO4)CC2=O)cc1 (stereo not given) is listed as 8, 1.0
O=C(CSc1nnc(-c2ccccc2)o1)c1cccc([N+](=O)[O-])c1 is listed as 3, -0.8
Cc1ccc(C)c(Cn2c(=O)n(Cc3ccc(C(=O)NC4CCN(Cc5ccccc5)CC4)cc3)c(=O)c3ccccc32)c1 is listed as 20, 1.1
CCN1CCC(N(Cc2ccc(F)cc2)C(=O)Nc2ccc(C)c(F)c2)CC1 is listed as -10, 0.7

Following part.
SMILES	TRPML1 inh	TRPML1 agonist
COC(=O)COc1ccc(-c2nnc(Nc3ccc(O)cc3)c3ccccc23)cc1	-14	2.0
Cc1ccc2occ(CC(=O)Nc3ccc(S(=O)(=O)N4CCCC(C)C4)cc3)c2c1 (stereo not given)	?	2.2
Cc1ccc(CCNC(=O)c2sc3ncccc3c2-n2c(C)ccc2C)cc1	89	2.8
CCOCCCNC(=O)CN1C(=O)c2c(c3ccccc3n2C)C1c1ccc(OC)cc1 (stereo not given)	-4	1.4
CCNC(=O)C1CCN(c2nnc(C)c3c(C)n(-c4ccc(OC)cc4)nc23)CC1	-2	1.9
CC1CCCN(S(=O)(=O)c2ccc3[nH]c(=O)cc(C(=O)NCCc4ccc(Cl)cc4)c3c2)C1 (stereo not given)	19	3.4
CCCn1cc(S(=O)(=O)c2ccc(CC)cc2)c(=O)c2ccccc21	1	-1.2
CCCN1Cc2cccc(C(=O)Nc3ccc(OC)cc3OC)c2C1=O	8	1.6
COc1ccc(-c2nc3scc(CCNC(=O)c4cc(OC)cc(OC)c4)n3n2)cc1	26	0.2
CCOc1ccccc1CNC(=O)CCCN1C(=O)COc2ccc(C)cc21	-21	0.1
COc1ccc(-n2nc(C(=O)Nc3ccc(C)cn3)c3c4ccccc4n(C)c3c2=O)cc1Cl	0	-0.5
Cc1cccc(-c2nc3c4ccccc4n(Cc4cccc(Cl)c4)c(=O)n3n2)c1	6	1.8
COc1cc2c(cc1NC(=O)COc1ccc(Cl)cc1Br)oc1ccccc12	-7	-0.7
Cc1ccc(NC2=C(c3ccc(C(F)(F)F)cc3)C(=O)c3ccccc32)cc1F	5	-0.3
CCCS(=O)(=O)NCCc1sc2nc(-c3ccc(F)cc3)nn2c1C	-10	0.8
CCN(C(=O)c1nn(-c2ccc(C)cc2)c(=O)c2c1c1ccccc1n2C)c1ccc(F)cc1	51	1.9
Cc1cc(N2CCC(C(=O)NCCC(C)C)CC2)n2nc(C)c(-c3ccc(Cl)cc3)c2n1	-10	0.1
COC(=O)CCN(C(=O)C1CCN(S(=O)(=O)c2c(C)noc2/C=C/c2ccccc2F)CC1)c1ccccc1	-19	1.1
CC(C)NC(=O)CSc1nc2ccccc2nc1N1CCCCC1	44	0.4
CCN(c1cc(C)cc(C)c1)S(=O)(=O)c1nnc(NC(=O)C2CCCCC2)s1	?	5.3
Fc1ccc(-n2ncc3c(NCCC4=CCCCC4)ncnc32)cc1	28	-1.0
Cc1c(C(N)=O)nnn1-c1ccc(Br)cc1	-1	-1.2
COc1ccc(NC(=O)Cn2nc3c(cc2=O)CCCC3)cc1Cl	-6	0.4
COCCNC(=O)c1ccc2nc(Cc3ccccc3)oc2c1	19	-0.5
O=C(CCC1N=C2c3ccccc3N=C(SCc3ccc(Cl)cc3)N2C1=O)NC1CCCCC1 (stereo not given)	4	-0.5
Other compounds follow.
SMILES	TRPML1 inh	TRPML1 agonist
Cc1cccc(Cn2c(CN3CCC(C(=O)NCc4cccnc4)CC3)cc3ccccc32)c1	13	4.2
COc1cc2c(cc1OC)C(COc1ccc(C(C)C)cc1)N(C(=O)c1ccc(S(=O)(=O)N3CCCC3)cc1)CC2 (stereo not given)	14	0.2
O=C(CC1C(=O)N(c2ccccc2)C(=O)N1Cc1ccc(F)cc1)Nc1cccc(F)c1 (stereo not given)	-19	0.8
COc1ccc(C2C(C(=O)Nc3ccccc3)=C(C)Nc3nc(SCC(=O)c4ccc(C)cc4)nn32)cc1 (stereo not given)	10	0.4
CCc1ccc(-c2nc(SCC(=O)NCCOC)c(-c3ccc(C)cc3)[nH]2)cc1	-1	0.8
CCOc1ccc(NC(=O)c2cn(C3CCCCC3)c(=O)c3c2c2ccccc2n3C)cc1	14	-0.6
Cc1ccc(-c2cc3c(n2-c2ccccc2F)CC(C)(C)CC3=O)cc1	-24	0.2
COc1cccc(NC(=O)C2CCCN(S(=O)(=O)c3c(C)[nH]c(=O)[nH]c3=O)C2)c1 (stereo not given)	-22	0.1
Cc1cn2c(=O)cc(COC(=O)c3cccc(NC(=O)COc4ccccc4C)c3)nc2s1	-1	2.1
CC(C)n1c(=N)c(C(=O)NCc2cccnc2)cc2c(=O)n3ccccc3nc21	11	0.5
CC1=C(c2ccc(C)cc2)S(=O)(=O)N=C1N1CCN(c2ccccc2)CC1	9	1.7
CC(C)CCNC(=O)c1cc(Sc2ccc(F)cc2F)nc2ccccc12	4	0.5
Cc1cccc(Oc2coc3cc(OCC(=O)NC4CCCCC4)ccc3c2=O)c1	61	-0.6
CN(C)c1ccc(C(CNC(=O)Cc2ccc(Cl)cc2)N2CCOCC2)cc1 (stereo not given)	17	0.1
CCCCN(C)S(=O)(=O)c1ccc(C(=O)Nc2sc3c(c2C(N)=O)CC(C)(C)NC3(C)C)cc1	19	0.2
COc1ccc(C(=O)NCCn2cc(SCC(=O)Nc3ccccc3)c3ccccc32)cc1OC	7	-0.1
COc1cccc(N2CCN(C(=O)c3c4c(nc5ccccc35)C(=O)N(C3CCCCC3)C4)CC2)c1	11	0.0
Cc1ccc2onc(CC(=O)Nc3cc(F)ccc3F)c2c1	4	2.4
CC(=O)N1CCc2cc(Br)cc(S(=O)(=O)N3CCC(C(=O)Nc4ccc(C(C)C)cc4)CC3)c21	1	4.3
Cc1ccc2nc(-c3ccc(F)cc3)c(NC(C)(C)CC(C)(C)C)n2c1	0	0.5
CCc1ccc(CN2CCc3nc(Nc4ccc5c(c4)OCCO5)ncc3C2)cc1	-12	0.2
Cc1cccc(N2CCN(c3ccc4cc(S(=O)(=O)N5CCC(C)CC5)ccc4n3)CC2)c1C	27	15
Cc1ccc2c(C)c(C(=O)N(Cc3ccc(Cl)cc3)C3CCS(=O)(=O)C3)oc2c1 (stereo not given)	54	1.7
COc1cccc(CNC(=O)c2cc(S(=O)(=O)N3CCCCCC3)cn2C)c1	-6	2.2
O=C(Nc1cc(-c2nc3ccccc3o2)ccc1Cl)c1ccc(N2CCCCC2)c([N+](=O)[O-])c1	-15	-0.4
The list continues:
SMILES	TRPML1 inh	TRPML1 agonist
COc1ccc2cc3cc(C(=O)Nc4ccccc4C)oc3nc2c1	-10	-0.8
CCCNC(=O)CN1C(=O)COc2ccc(S(=O)(=O)N3CCC(C)CC3)cc21	-14	1.4
Cc1ccc(-c2cc(C(=O)Oc3ccccc3)c3cc(C)ccc3n2)cc1	21	-0.6
CCc1cccc(C)c1NC(=O)CCn1c(=O)c2cccn2c2ccccc21	1	4.7
Cc1cc(C)c2oc(-c3cccc(NC(=O)c4cccc(F)c4)c3C)nc2c1	-5	1.4
O=C(C1CCN(c2nc3ccccc3[nH]2)CC1)N1CCN(c2ccccc2)CC1	11	1.9
CCCC/C=C/[C@H](c1ccccc1)[C@H](CO)Cc1ccc([N+](=O)[O-])cc1	15	2.0
CCCNC(=O)c1ccc2c(c1)nc1n2CCCCC1	17	0.5
COc1ccc(CCNC(=O)C(=O)NCC(c2ccco2)S(=O)(=O)c2ccc(C)cc2)cc1 (stereo not given)	-2	0.7
COC(=O)Cc1c(C)c2cc3c(c(C)c2oc1=O)OCN(CCc1ccccc1F)C3	-15	-0.6
COc1cccc(CSc2nc3n(n2)C(c2cccnc2)C(C(=O)Nc2ccccc2C)=C(C)N3)c1 (stereo not given)	-11	2.0
CCOCCCNC(=O)C1CCN(c2nn3cc(-c4ccc(F)cc4)nc3s2)CC1	15	1.1
CC1CN(C(=O)CCC(=O)Nc2cc(F)ccc2F)c2ccccc2S1 (stereo not given)	12	2.4
CCc1ccc(OCC(=O)N(Cc2ccc(Cl)cc2)C2CCS(=O)(=O)C2)cc1 (stereo not given)	1	0.7
COc1cccc(-n2c(=O)c3c4c(sc3n(Cc3ccc(C)cc3)c2=O)CCCC4)c1	1	2.8
CCOC(=O)c1nn2c(C(F)(F)F)cc(-c3ccc(C)cc3)nc2c1Cl	-7	-1.0
O=C(Nc1cccc(F)c1F)C1CCN(c2ncccn2)CC1	-3	-1.1
COc1ccccc1NC(=O)Cn1c(=O)n(Cc2ccccc2)c(=O)c2c1c1cc(C)ccc1n2C	-8	-0.4
CCc1ccc(CSc2nc(-c3ccccc3OC)nc3c2Cc2c(CO)cnc(C)c2O3)cc1	4	1.6
CCOc1ccc(C2C(C(N)=O)=C(C)Nc3nc(-c4cccc(Cl)c4)nn32)cc1OC (stereo not given)	19	-0.5
CCCSC1=NC2(CCN(C(=O)NC3CCCCC3)CC2)N=C1c1ccc(Cl)cc1	-4	0.1
Cc1ccc(-c2nc3ncccc3o2)cc1NC(=O)c1ccccc1Br	10	0.3
CCOC(=O)c1[nH]c(C)c(CCC(=O)Nc2cccc(C(F)(F)F)c2)c1C	-13	0.0
CCc1ccc(S(=O)(=O)c2nnn3c2nc(Nc2cccc(C)c2C)c2sccc23)cc1	-4	1.0

The list is partial; rates above refer to the full screens.
